High-throughput results deposited in PubChem BioAssay by National Center for Advancing Translational Sciences (NCATS).
TRPML1 agonist – agonists of human TRPML1 channel; Q9GZU1; TRPML1-expressing cells, Ca2+ dye fluorescence, FDSS; host cell line not named in the record; reference of the full effect not given here; activation, % (test concentration not listed); 410,000 tested, 0.12% active; in the data active = activation above about 50%; inconclusive = about 30% to 50%; inactive = below about 30%; also: 0% is about no effect; the text of the record puts the active cut at 80%
Target sequence (Q9GZU1 whole entry, looked up): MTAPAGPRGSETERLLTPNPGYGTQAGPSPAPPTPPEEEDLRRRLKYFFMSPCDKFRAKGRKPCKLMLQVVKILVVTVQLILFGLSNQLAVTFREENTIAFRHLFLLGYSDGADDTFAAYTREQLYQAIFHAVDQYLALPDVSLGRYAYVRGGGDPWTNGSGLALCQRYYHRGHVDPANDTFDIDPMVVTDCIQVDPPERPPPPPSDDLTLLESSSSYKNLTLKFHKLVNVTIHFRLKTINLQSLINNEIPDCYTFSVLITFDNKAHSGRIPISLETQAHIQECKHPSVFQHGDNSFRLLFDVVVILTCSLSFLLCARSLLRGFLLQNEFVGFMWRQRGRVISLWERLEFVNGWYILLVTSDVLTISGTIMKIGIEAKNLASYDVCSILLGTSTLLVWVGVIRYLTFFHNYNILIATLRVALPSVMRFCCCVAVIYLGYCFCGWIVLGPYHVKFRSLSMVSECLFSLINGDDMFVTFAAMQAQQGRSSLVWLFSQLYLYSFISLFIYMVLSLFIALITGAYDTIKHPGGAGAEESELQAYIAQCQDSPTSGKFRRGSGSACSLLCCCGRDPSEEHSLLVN
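Tetracycline-induced TRPML1-DL cells are seeded and incubated overnight before loading with a no-wash Ca2+ dye and quencher. Agonist activity is taken from the 110 s fluorescence read following compound pin-transfer on an FDSS, before EC80 54-4 challenge.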
TRPML1 inh – human mucolipin-1 channel inhibition; Q9GZU1; TRPML1-inducible cells, Ca2+ dye fluorescence, FDSS; stronger effect = lower value; inhibition of EC80 agonist-evoked calcium signal; activity change, negative = inhibition, % (concentration not given with the values); 390,000 tested, 0.02% active; in the data active means activity change below about -50%; inconclusive means about -30% to -50%; inactive means above about -30%;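 also: stimulus is agonist 54-4 at its EC80 concentration; % is scaled to controls: 0 for no effect and ±100 for the full control effect; compound concentration not given in the record; the text of the record puts the active cut at -80%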
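Calcium fluorescence in TRPML1-DL cells induced overnight with Tet: a 110 s read after compound pin addition, then a 110 s antagonist read after challenge with 54-4 at 4 uM final (EC80).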
gsp antag – antagonists of gsp mutant (McCune-Albright syndrome) | gsp-mutant cells, cAMP HTRF, 30 min; control for the full effect not named in the record | Potency, µM (doses to about 76.9 µM), for inactives: at the top dose activity change, negative = inhibition, most hits filed as inhibitors | 340,000 tested, 0.4% active; active = falling curve of any shape with a large fitted effect; inconclusive = falling curve, mostly with a smaller effect; inactive = flat or rising curve; cell line not stated here;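 also: intracellular cAMP measured with PDE inhibitor Ro 20-1724 present during compound exposure; potency is read from the fitted curve at half-maximal effect; % is scaled to controls: 0 for no effect and ±100 for the full control effect; nearly all actives have a fitted effect of over 65% in size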
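Cells, 2000/well, grown 16–24 h in DMEM 10% FBS with 0.5 mg/ml G418, then compounds plus […] (300 uM addition stock), 30 min at 37C. cAMP read by HTRF (cAMP-d2 and anti-cAMP antibody-K in lysis buffer) after 30 min RT.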
Menin-MLL FL inh – displaces fluorescein MLL peptide from human menin; FP activity change, % at 61.4 µM; 290,000 tested, under 10 active; Fluorescence polarization, fluorescein-MLL peptide displacement from menin; inconclusive = falling polarisation curve, or a change in total fluorescence; inactive = total fluorescence flat and polarisation flat or rising; no compound was filed as active; the % refers to the polarisation; negative = inhibition;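 also: % of control where 0% means no effect; inhibitors lower the polarisation; unlabelled MLL peptide was the positive control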
gsp agonist – gsp mutant agonism; gsp mutant cells, cAMP HTRF, 30 min; control for the full effect not named in the record; Potency, µM (highest dose often 76.9 µM), for inactives: at the highest dose activation (cAMP increase), actives largely listed as activators; 340,000 tested, 0.13% active; AID 624287; active = well fitted activation curve with a large enough effect; inconclusive = small, poorly fitted or top-dose-only effect, or another doubt; inactive = no such curve, though single readings can be large or run the other way; cell line not stated here;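 also: phosphodiesterase inhibitor Ro 20-1724 added with compounds to block cAMP breakdown; potency is read from the fitted curve at half-maximal effect; nearly all actives have a fitted effect of over 60% in size; about a fifth of the inactives were tested at one dose only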
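Cells stably selected in G418 were plated at 2000/well, grown 16-24 hr, then given compounds in DMSO with the PDE inhibitor […] (300 uM solution added) for 30 min at 37C; cAMP was read by HTRF.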
ClpP mod – qHTS Assay for Activators of ClpP; 340,000 tested, 1.9% active; purified B. subtilis ClpP, FRET peptide cleavage, 20 min; Potency, µM (series often up to 57.5 µM), for the others: at the top dose activity change, negative = active; active = well fitted falling curve with a large enough effect; inconclusive = small, poorly fitted or top-dose-only effect; inactive = no such curve, though single readings can be large or run the other way; also: potency is read from the fitted curve at half-maximal effect; the source files actives as falling curves though it sought activators and does not explain the sign; nearly all actives have a fitted effect of over 65% in size; many hits overshoot -100%
Target sequence (P80244 whole entry, looked up): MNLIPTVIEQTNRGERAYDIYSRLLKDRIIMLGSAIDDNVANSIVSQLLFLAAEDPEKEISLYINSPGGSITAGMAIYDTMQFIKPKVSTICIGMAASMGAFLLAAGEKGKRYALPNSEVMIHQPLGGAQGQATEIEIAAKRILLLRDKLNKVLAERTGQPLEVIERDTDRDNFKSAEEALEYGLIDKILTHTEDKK
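FRET quenching reversal measured ClpP activation: 10 microg/mL B. subtilis ClpP at pH 8 with the FRET-FV decapeptide, read at 430 nm after 320 nm excitation. The 20-min minus 0-min signal was scaled between DMSO/no-enzyme wells and ADEP (5.8 microM final).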
An asterisk follows results filed as active; ? = inconclusive; . = no result given; & = joins results of further samples; [ ] = dose if it differs, or a comment.

SMILES	TRPML1 agonist	TRPML1 inh	gsp antag	Menin-MLL FL inh	gsp agonist	ClpP mod
CC(=O)c1c(C)[nH]c(C(=O)CN2C(=O)NC(C)(CCC(C)C)C2=O)c1C (centres undefined)	0.3	-16	-10%	0.3	-8%	0.8%
CCC(CC)C(=O)Nc1nnc(S(=O)(=O)N2c3ccccc3CC2C)s1 (centres undefined)	4.4&2.7	43&20	0%	4.1	-3%	3.4%&1.4%
CC(C)C1N(c2ccccc2)C(N)=C(C#N)C1(C#N)C#N (centres undefined)	-0.5	-22	-4%	0.1	-5%	-1.3%
O=C(Nc1ccccc1)C1=C[C@@H](c2ccccc2)C[C@@H](OCc2ccc(CO)cc2)O1	0.9	-9	2%	-3.3	.	-2.3%
COc1ccc(CCNC(=O)c2ccc3c(c2)N(Cc2ccc(Cl)cc2)CCS3)c(OC)c1	2.9	-9	.	.	.	3.7%
COc1cc(/C=C(\NC(C)=O)C(=O)Nc2cccc(O)c2)ccc1OC(C)=O	-0.4	-3	-13%	.	-5%[15.4 µM]	-1.3%
O=C(OCc1cccc([N+](=O)[O-])c1)c1cc2ccccc2oc1=O	-0.3	-2	1%	-5.4	4%[15.4 µM]	1.1%
COc1ccc(C(=O)Nc2cccc3cccnc23)cc1OC	0.8	14	4%	-4.6	-27%	-1.3%
Cc1ccc(OC(C)C(=O)Nc2ccc3c(c2)n(C)c(=O)n3C)c(C)c1 (centres undefined)	0.0	41	-7%	3.5	-31%[inhibitor]	0.0%
O=C(Nc1ccccc1F)C1CCN(C(=O)Cc2ccccc2)CC1	-0.3	47	11%	-0.4	?	-2.4%
CC(=O)c1cccc(NC(=O)Nc2ccc(C(=O)N3CCCC3)cc2)c1	1.5	18	-19%	0.3	-15%	1.6%
COc1ccc(NS(=O)(=O)c2cccc(-c3nnc4n3CCCCC4)c2)cc1	-1.3	18	-4%	-0.3	-31%[inhibitor]	-0.4%
Cc1cc(C)cc(OCc2ccc(C(=O)Nc3ccccc3F)o2)c1	4.0	15	.	.	.	26%
CN1CCN(S(=O)(=O)c2cccc(C(=O)Nc3ccccc3N3CCCCC3)c2)CC1	1.0	-19	-2%	.	-38%[inhibitor]	-9.0%
O=C(NC1CCN(c2ncccn2)CC1)c1c(F)cccc1F	-0.1	46	13%	.	-25%[15.4 µM]	0.1%
COc1ccc(N2C(=S)N=C(Nc3cccc(C)c3)C23CCCCC3)cc1	2.2	6	6%	9.4	20%	-1.8%
FC(F)(F)c1ccccc1Cc1c(-c2ccccc2)nc2ccc(Cl)cn12	2.5	37	.	.	.	?
CCN(CC)CCN(C(=O)C1=COCCO1)c1nc2cc(C)cc(C)c2s1	-0.3	8	4%	-2.4	10%	1.5%
O=C(COC(=O)C12CC3CC(CC(C3)C1)C2)Nc1nc2c(F)c(F)c(F)cc2s1	-0.3	7	-1%	0.7	-2%	-1.0%
O=C(Cc1nc2ccccc2[nH]1)c1ccc(Br)cc1	0.6	2	-26%	0.4	-4%[15.4 µM]	.
Cc1ccc(OCCC(=O)OCC(=O)NC2CCS(=O)(=O)C2)cc1 (centres undefined)	0.2	0	3%	.	56%[15.4 µM]	.
COc1ccc(C)cc1S(=O)(=O)Nc1cc2c3c(c1)CCC(=O)N3CCC2	1.1	-10	-7%	.	42%[15.4 µM]	.
O=C(Nc1ccc2nc3n(c(=O)c2c1)CCCC3)c1cccc(F)c1	-0.8	18	-4%	-0.3	36%	-3.4%
O=C(Nc1ccnn1C1CCN(Cc2ccccn2)CC1)c1cccc(F)c1	-0.2	2	12%	0.2	2%	-0.6%
COC(=O)c1ccc(N2CCN(C(=O)c3ccccc3)CC2)c(NC(C)=O)c1	-0.5	14	5%	0.6	10%[15.4 µM]	.
CC(C)C[C@H]1CNC(=S)N1C[C@H]1CCCN1C[C@H](Cc1ccc(O)cc1)N1C[C@H](Cc2ccc(O)cc2)N(CC2CCCCC2)C1=S	-0.6	5	.	.	.	1.8%
CCc1ccc(CNc2ncc(-c3cccc(OC)c3)n2C)cc1	0.6	6	.	.	.	4.5%
NC(=O)c1ccsc1NC(=O)COC(=O)CNC(=O)c1ccc(Cl)cc1	0.8	2	18%	.	8%	?
COc1ccc(NC(=O)CCS(=O)(=O)c2ccc(Cl)cc2)cc1	0.8	3	8%	?	-2%	1.1%
Cc1ccc(S(=O)(=O)NCC(=O)NCC(=O)NCCc2ccccc2F)cc1C	0.0	39	8%	.	3%	-24%
Cc1cc(N2CCN(C)CC2)nc(N2CCOCC2)n1	-0.6	16	11%	-0.8	28%	-16%
CC(C)CC(OC(=O)c1cccs1)C(=O)NCc1ccco1 (centres undefined)	-1.1	16	3%	-8.9	-2%	-2.3%
COc1ccc(-c2ccc3c(N)c(C(=O)NCc4ccc(Cl)cc4)sc3n2)cc1	-0.3	1	.	.	.	4.3%
CCOC(=O)CN(C(=O)COC(=O)C1=NNC(=O)CC1)c1ccc(F)cc1	-1.1	-1	-2%	.	1%	.
Cc1nc(-c2ccccc2)nc2sc(C(=O)c3ccc(F)cc3)c(N)c12	1.0	8	-1%	?	5%	2.2%
CCN1CCCC1CNC(=O)c1cc2c(=O)n(C)c3ccccc3c2n1C (centres undefined)	0.7	-5	3%	4.2	-30%	4.5%
COc1ccccc1N(C)S(=O)(=O)c1ccc(C(=O)N(C)Cc2ccc(OC(F)F)cc2)cc1	1.4	20	-19%	.	1%	-5.3%
O=C(C1=C(O)C(=O)N(CCN2CCOCC2)C1c1ccccc1)c1cccs1 (centres undefined)	3.4	-10	9%	.	25%	-5.8%
O=C(O)c1ccccc1C(=O)Nc1ccccc1[N+](=O)[O-]	-0.2	12	7%	-7.2	26%[15.4 µM]	.
COc1ccccc1NC(=O)c1sc2nc(-c3cc4ccccc4oc3=O)[nH]c(=O)c2c1C	-0.1	-13	.	.	.	-0.4%
O=C(OCCOc1ccccc1)c1cc(S(=O)(=O)N2CCOCC2)c(Cl)cc1Cl	0.5	32	.	.	-17%	-1.3%
O=C(OCCOc1ccccc1)c1cc(S(=O)(=O)N2CCOCC2)ccc1Cl	-0.1	37	7%	.	-7%	0.5%
O=C(Nc1cc(Cl)ccc1-n1cncn1)c1cc(F)cc(F)c1	-0.1	-7	-12%	.	18%[15.4 µM]	.
Clc1ccccc1CSc1nnc(C2CCNCC2)o1	0.5	0	.	.	.	-0.6%
COc1cccc(NC(=S)NCc2ccc3c(c2)cc(C)n3C)c1	4.0	-5	3%	-4.1	11%	-0.1%
N#CCCN(Cc1cccnc1)C(=O)Nc1ccc(Cl)c(Cl)c1	1.3	7	-13%	0.3	-2%	5.9%
CSc1cccc(NC(=O)Cn2cccc2)c1	0.2	-4	8%	8.2	-2%	-1.2%
CC(NC(=O)c1noc2c1CCCC2)c1ccccc1 (centres undefined)	0.4	-10	10%	1.7	-22%	-6.5%
COc1ccc(C(=O)Nc2ccc(C(=O)Nc3cccnc3)cc2)cc1	-0.2	-4	-6%	-0.6	-40%[15.4 µM]	-0.1%
Cc1c(C(=O)OCC(=O)N(C)c2ccccc2)cccc1[N+](=O)[O-]	0.4	35	.	3.3	-4%[15.4 µM]	.
Cc1ccc(-c2csc(N3CCN(CCCn4c(C(F)(F)F)nc5ccccc54)CC3)n2)cc1	-0.8	-7	5%	5.5	.	-2.9%
CCOc1cccc2sc(N3CCN(C(=O)C4CC4)CC3)nc12	1.2	10	.	.	.	0.5%
Cc1ccc(S(=O)(=O)Cc2ccc(C(=O)N3CCc4ccccc4C3)o2)cc1	0.4	34	-5%	0.4	5%	-1.1%
CCOc1ccc(NC(=O)CN2C(=O)c3ccccc3C2=O)cc1	0.1	5	7%	6.0	20%	2.0%
CSc1ccc(CNc2ccc(C)cc2)cc1	0.0	-14	-14%	2.9	-43%[inhibitor]	0.4%
Cn1c(Oc2ccccc2)nc2c1c(=O)n(Cc1ccc(Cl)cc1Cl)c(=O)n2C	0.5	31	.	.	.	1.6%
Cc1cccc(C(=O)Nc2ccn(C)n2)c1	-0.4	5	6%	.	-10%[15.4 µM]	.
CC(=O)Nc1sc2c(c1C#N)CCC(C)C2 (centres undefined)	1.0	7	6%	-1.6	16%[15.4 µM]	.
Cn1sc(NC(=O)c2ccccc2)nc1=O	1.9	-20	?	-0.2	-60%[inhibitor]	-1.2%
CN(C)S(=O)(=O)n1cnc([C@@H]2[C@@H]3C(=O)OC[C@@H]3C[C@]23N=CN(Cc2ccccc2)C3=O)c1	-0.2	31	7%	.	-4%	1.7%
The list continues.
SMILES	TRPML1 agonist	TRPML1 inh	gsp antag	Menin-MLL FL inh	gsp agonist	ClpP mod
Cc1ccnc(N=O)c1	-0.6	5	10%	.	.	1.3%
Cc1ccsc1C=C1C(=O)c2ccccc2C1=O	1.7	7	-14%	0.2	-5%	0.5%
Cc1cc(C)cc(Oc2nc(C(F)(F)F)nc3ccccc23)c1	2.3	31	-7%	-1.0	-1%	-6.9%
CCOC(=O)c1c(NC2=NS(=O)(=O)c3ccccc32)sc2c1CCCCC2	-0.7	2	-23%	9.0	-4%	-1.6%
O=C(O)c1ccc(-n2c(-c3cc(-c4ccco4)[nH]n3)n[nH]c2=S)cc1	-0.6	4	7%	6.8	-8%	-0.8%
COc1ccc(/C=N/NC(=O)c2csc(-n3nc(C)cc3C(F)(F)F)n2)cc1	0.8	3	5%	4.1	?	-14%
NS(=O)(=O)c1ccc(NC(=O)/C(=C/c2ccncc2)NC(=O)c2ccccc2)cc1	1.0	?	-1%	-5.7	?	.
COc1ccc(-c2oc3ncnc(NCCN4CCOCC4)c3c2-c2ccc(OC)cc2)cc1	3.0	30	-7%	2.5	0%	?
CCOc1ccc(NS(=O)(=O)c2cc(OCC(N)=O)c(C)cc2Cl)cc1	0.5	4	8%	3.8	?	-7.7%

Single values from the results shown:
`CCOc1ccc(NS(=O)(=O)c2cc(OCC(N)=O)c(C)cc2Cl)cc1` | TRPML1 agonist = 0.5
`COc1ccc(/C=N/NC(=O)c2csc(-n3nc(C)cc3C(F)(F)F)n2)cc1` | TRPML1 agonist = 0.8
`COc1ccc(-c2oc3ncnc(NCCN4CCOCC4)c3c2-c2ccc(OC)cc2)cc1` | Menin-MLL FL inh = 2.5
`Cc1ccsc1C=C1C(=O)c2ccccc2C1=O` | TRPML1 inh = 7
`Cc1ccnc(N=O)c1` | TRPML1 agonist = -0.6
`Cc1cc(C)cc(Oc2nc(C(F)(F)F)nc3ccccc23)c1` | ClpP mod = -6.9%

Arranged by length of the SMILES (ascending): 3 of the compounds above
SMILES	TRPML1 agonist	TRPML1 inh	gsp antag	Menin-MLL FL inh	gsp agonist	ClpP mod
Cc1ccnc(N=O)c1	-0.6	5	10%	.	.	1.3%
CCOC(=O)c1c(NC2=NS(=O)(=O)c3ccccc32)sc2c1CCCCC2	-0.7	2	-23%	9.0	-4%	-1.6%
COc1ccc(/C=N/NC(=O)c2csc(-n3nc(C)cc3C(F)(F)F)n2)cc1	0.8	3	5%	4.1	?	-14%
